KCNQ2 pot: KCNQ2 (rat) channel potentiation. CHO-K1 KCNQ2, FluxOR thallium flux fluorescence; hits give high values. 310,000 tested, 0.54% active. AID 2239. O88943. B-score at 10 µM;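 active = fluorescence ratio B-score at least 3 SD of library B-scores, with initial fluorescence B-score within 3 SD, cut at about 5.3 in these data; same plate scores as AID 2156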;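 note: B-score of peak minus minimum over baseline fluorescence ratio after K+ and Tl+ stimulus; positive B-score means potentiation of KCNQ2 with more thallium influx and brighter signal; only the inactives scoring about 0 or higher are listed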
Target sequence (O88943 whole entry, looked up): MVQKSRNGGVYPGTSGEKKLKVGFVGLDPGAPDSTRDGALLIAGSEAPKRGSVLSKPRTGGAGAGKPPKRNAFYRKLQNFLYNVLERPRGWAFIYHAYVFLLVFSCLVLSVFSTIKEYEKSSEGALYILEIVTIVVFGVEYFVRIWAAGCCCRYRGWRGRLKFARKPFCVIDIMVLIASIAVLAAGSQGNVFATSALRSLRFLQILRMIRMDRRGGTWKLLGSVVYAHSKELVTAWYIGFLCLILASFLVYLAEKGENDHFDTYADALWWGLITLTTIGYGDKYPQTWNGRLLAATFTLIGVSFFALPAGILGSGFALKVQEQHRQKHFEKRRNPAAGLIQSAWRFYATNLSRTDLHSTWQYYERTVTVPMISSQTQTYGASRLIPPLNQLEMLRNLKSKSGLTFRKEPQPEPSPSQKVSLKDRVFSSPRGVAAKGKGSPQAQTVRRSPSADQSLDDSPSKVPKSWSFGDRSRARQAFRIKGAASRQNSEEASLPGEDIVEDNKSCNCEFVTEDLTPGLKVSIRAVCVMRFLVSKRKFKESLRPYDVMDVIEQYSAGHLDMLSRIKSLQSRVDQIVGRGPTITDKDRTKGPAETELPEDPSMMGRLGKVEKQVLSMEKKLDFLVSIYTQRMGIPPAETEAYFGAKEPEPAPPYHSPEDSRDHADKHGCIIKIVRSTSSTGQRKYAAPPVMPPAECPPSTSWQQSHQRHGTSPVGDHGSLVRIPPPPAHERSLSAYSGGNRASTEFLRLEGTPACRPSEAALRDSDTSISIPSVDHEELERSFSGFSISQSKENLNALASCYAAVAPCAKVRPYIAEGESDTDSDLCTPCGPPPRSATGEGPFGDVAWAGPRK
KCNQ2 pot baseline: further read-out of KCNQ2 pot, marked with its call; B-score; compound at 10 µM; measured here: initial fluorescence intensity artifact check;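 brightness before thallium and not channel activity; 0 = typical well and far values either way flag optical interference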
Active calls of the source: *; · = not tested or not shown. Some of the compounds tested; rates above refer to the full screens.

SMILES	KCNQ2 pot	KCNQ2 pot baseline
O=C(O)c1cccc(-n2cccc2/C=C\[N+](=O)[O-])c1	2.4	-1
COc1cc(C(=O)Nc2nnc(CC(=O)N3CCOCC3)s2)cc(OC)c1OC	0.66	-2.6
O=C(Cc1ccc(Cl)cc1)NCCS(=O)(=O)N1CCN(c2ccccc2)CC1	1.4	-1.6
CCCS(=O)(=O)N1CCN(C(=O)c2ccc(-c3ccccc3)cc2)CC1	0.72	-1.7
S=C(NCCC1=CCCCC1)Nc1ccc(Cl)cc1	1.2	-0.77
Cc1cc(C)n(-c2nc3c(c(=O)[nH]c(=O)n3C)n2CC(O)c2ccccc2)n1 (stereo unspecified)	0.12	-0.15
CCSc1nc(O)c(C2OC(=O)c3c2ccc(OC)c3OC)c(=O)n1CC (stereo unspecified)	1.6	0
Cc1ccc(C(C(=O)Nc2ccc(C(C)C)cc2)N(C)C(=O)c2ccc(=O)[nH]c2)cc1 (stereo unspecified)	0.12	1.3
CCOC(=O)C1CCN(C2CCN(Cc3nc(-c4ccccc4)no3)CC2)CC1	1.2	0.2
Cc1onc(-c2ccccc2)c1CNC(=O)CN1C(=O)c2ccccc2C1=O	1.7	-1.6
O=C(NN1CCOCC1)c1ccc(Cl)s1	1.8	-0.81
Cc1coc2cc3oc(=O)c(CCC(=O)NCCCN4CCCC4=O)c(C)c3cc12	0.21	0.04
COc1cc(C(C(=O)NC2CCCCC2)N(C(=O)c2snc(C(N)=O)c2N)c2ccc(C)cc2)ccc1O (stereo unspecified)	0.39	-0.63
O=C(CCc1nnc(Cc2ccc3c(c2)OCO3)o1)NCc1nc2ccccc2s1	0.96	0.67
COc1ccc(N2C(=O)CC3(CCCC3)CC2=O)cc1	0.58	-0.46
COc1ccc(CN2CCn3nc(C(=O)NC(C)C)cc3C2=O)cc1	1.4	0
Cc1nn(C)cc1CN(C)C(=O)CCc1nnc(CCC2CCCCC2)o1	0.81	0.01
COc1ccc(NC2CCCN(C(=O)COc3ccc(C)cc3)C2)cc1 (stereo unspecified)	0.51	1.2
COc1ccc(C(=O)NCCCN2CCOCC2)cc1	0.02	1.9
O=C(N/N=C/c1cccc([N+](=O)[O-])c1)C(=O)N1CCCCCC1	0.07	0.11
CCc1c(C)sc(NC(=O)CC#N)c1C#N	1.1	0.23
NC(=O)CCn1c2ccccc2c2ccccc21	0.2	-0.31
COc1cccc(C(=O)Nc2ncc3c(n2)CC(C)(C)CC3=O)c1	0.05	2.3
FC(F)(F)c1cccc(-c2nc3nc(Cl)c(Cl)nc3[nH]2)c1	1.5	1.5
CC(C)n1c(SCC(=O)N2CCCC2)nc2c1c(=O)n(C)c(=O)n2C	3.9	-2.9
COc1ccc(C(=O)CSc2nnc(CNC(=O)c3ccco3)n2C)cc1	0.64	-1
NC(=O)c1ccc(Nc2ccc3nonc3c2[N+](=O)[O-])cc1	1.7	-1.2
COCCN1C(=O)N(c2cccc(OC)c2)C(=O)C1CC(=O)Nc1ccc(Cl)cc1 (stereo unspecified)	0.33	-0.3
COc1ccc(CCNC(=O)CS(=O)(=O)Cc2nc(-c3ccccc3Cl)oc2C)cc1OC	0.2	-0.03
Cc1[nH]c2ccccc2c1-c1csc(N)n1	0.02	0
CCC(=O)N/C(=N\OCc1ccc(F)cc1)c1nonc1NC(=O)CC	0.85	-1.1
O=C(NCCCNC(=O)c1ccccc1Br)c1ccccc1Br	0.13	-0.52
Cc1cc(C)c2nc(NC(=O)c3ccc([N+](=O)[O-])o3)sc2c1	0.01	1.1
Cc1ccc(-n2ncc3c2CC(C)(C)CC3NC(=O)CCc2cccnc2)cc1 (stereo unspecified)	0.35	1.4
CCc1ccc2c(CN3CCc4cc(OC)c(OC)cc4C3)cc(=O)oc2c1	1.3	-2.8
Cc1cc(OCC(=O)Nc2ccc(F)c(F)c2)nc(C(C)C)n1	0.4	0.22
Cc1ccc(-n2c(C)nc3ccsc3c2=O)cc1	3.4	-1.5
O=C(O)/C=C/C(=O)NCCCc1ccccc1	0.68	0.06
Cc1cc(C)c(-n2nnnc2SCC(=O)c2cccs2)c(C)c1	0.87	-0.45
COc1cc(SC)ccc1C(=O)Nc1ccccc1	0.47	-0.06
COc1cccc(CNC(=O)CN2CCC(c3nc4ccc(C)cc4[nH]3)CC2)c1	0.46	2.3
Cc1onc(-c2ccccc2)c1C(=O)N1CCN(C)CC1	1.2	1.2
CN(C)/C=N/c1nc2nccc(-c3ccc(Cl)cc3)n2n1	1.2	-0.2
CCCCCN(C(=O)CCC(=O)OCC(=O)Nc1cccc(SC)c1)c1c(N)n(CCCC)c(=O)[nH]c1=O	0.01	-0.83
Cc1ccc(CNC(=O)Cn2cnc(S(=O)(=O)N3CCC(C)CC3)c2)o1	0.59	-1.2
COc1ccc(CCNC(=O)CSCc2ccc(F)cc2)cc1OC	0.28	-0.77
COc1ccc(Cl)cc1C(=O)CSc1nnnn1C	2.5	-0.17
CN(C)CCCNc1c2ccccc2nc2ccccc12	0.15	-1.7
CCc1nnc(N2C(=O)c3ccccc3C2(O)c2ccccc2)s1 (stereo unspecified)	0.52	-0.23
COc1ccc(CC(=O)O)cc1O	0.22	1.6
O=C(Nc1ccc(N2CCN(C(=O)c3ccccc3)CC2)cc1)c1ccc([N+](=O)[O-])o1	2.2	-0.26
C=CCN(c1ccc(C(=O)Nc2ccc(NC(C)=O)cc2)cc1)S(C)(=O)=O	0.42	0.1
COc1ccc2nc(C)cc(SCC(=O)O)c2c1	2.3	·
Cc1ccc(/C=N/n2c(-c3ccncc3)n[nH]c2=S)cc1	0.19	-0.18
COc1ccc(Nc2ccc(N3C(=O)CC(C)C3=O)cc2[N+](=O)[O-])cn1 (stereo unspecified)	0.46	-0.84
COC(=O)Cc1c(C)nc2nc(NCc3ccccc3OC)[nH]n2c1=O	0.37	0.02
CSc1ccc(S(=O)(=O)N2CCC(C(=O)NCc3ccco3)CC2)cc1	1.7	-2.8
CC1(C)CC(=O)C2=C(C1)N(c1ccccc1)C(=O)CC2c1ccc(O)cc1 (stereo unspecified)	0.36	0.11
O=C(CCSc1ccccc1)N1CCN(C(=O)c2ccco2)CC1	1.1	-0.51
COc1ccc(-c2[nH]ncc2C=O)cc1OC	0.91	-1.1

Looked up above.
KCNQ2 pot with Cc1ccc(/C=N/n2c(-c3ccncc3)n[nH]c2=S)cc1 → 0.19
KCNQ2 pot baseline with CCc1nnc(N2C(=O)c3ccccc3C2(O)c2ccccc2)s1 (stereo unspecified) → -0.23

(next part)
SMILES	KCNQ2 pot	KCNQ2 pot baseline
CC(Sc1ccccc1)C(=O)N1CCN(S(=O)(=O)c2ccccc2)CC1 (stereo unspecified)	0.14	0.03
COc1ccc(N2C(=O)CC(N3CCC(O)(c4ccc(Cl)cc4)CC3)C2=O)cc1 (stereo unspecified)	0.74	0.6
COC(=O)CCCCC1SCC2NC(=O)NC21 (stereo unspecified)	2.8	-0.89
O=S(=O)(c1cccc(C(F)(F)F)c1)N1CCCC1c1cccnc1 (stereo unspecified)	1.8	-1.5
CC(C)(C)c1cnnn1-c1ccc(NC(=O)c2ccc3c(c2)OCO3)cc1	0.17	-0.22
CSc1nc(C)cc(C)c1C(N)=O	0.71	0.02
CCCCNC(=O)CCn1c(=O)c2ccccc2n(CC(=O)NCCc2ccc(OC)c(OC)c2)c1=O	0.86	1.8
CC(C)c1ccc(OCC(=O)N2CCCCCC2)c(Br)c1	1.1	-0.94
Cc1cc(NC(=O)c2cnn3c(C(F)F)cc(C4CC4)nc23)no1	1.1	1.6
CCCc1cc(=O)oc2c(CN(CC)CC)c(O)c(Cl)cc12	1.9	-0.04
CCOc1ccccc1NC(=O)CSCC(=O)Nc1ccccc1	1.7	0.45
COc1cc(-c2nnc(-c3ccncc3)o2)ccc1OCc1ccccc1	0.05	-0.59
Cc1nc(Cc2nnc(SCC(=O)Nc3c(C)cccc3C)o2)cs1	0.51	-0.36
Cc1ccc(C)c(Oc2coc3cc(OCC(=O)Nc4ccccc4C(C)C)ccc3c2=O)c1	0.6	0.06
CC12CCC(C(=O)N(CC(O)CN3CCN(Cc4ccccc4)CC3)C1=O)C2(C)C (stereo unspecified)	0.57	1.1
CCCCc1c(C)nc2c(OC)cccc2c1SCCC(=O)O	1.9	-1.2
COc1cc(NC(=O)Nc2cccc3cccnc23)cc(OC)c1OC	1	1.6
COc1ccc(/C=N/NC(=O)CCOc2ccccc2C)cc1OC	0.05	0.75
CCOc1ccccc1-n1c(CNc2ccc(F)cc2)nnc1SCC(=O)NCc1ccco1	1.6	1.4
C=CCN1C(=O)C(CC(=O)O)SC1=Nc1ccc(N=Nc2ccccc2)cc1 (stereo unspecified)	2.1	-0.02
COC(=O)/C(N=Nc1c(C)n(C)n(-c2ccccc2)c1=O)=C(\C)O	0.35	0.1
Cc1cccc(CNC(=O)C2CCC(=O)N(C3CCCCCC3)C2)c1 (stereo unspecified)	0.54	-0.08
COc1ccccc1C(=O)NC(=S)Nc1ccc(NC(=O)c2ccco2)cc1	0.9	-0.16
N#Cc1ccccc1NC(=S)Nc1ccc(F)cc1	0.02	-0.1
O=C(NCC1CCCO1)c1cccc(NS(=O)(=O)c2ccccc2)c1 (stereo unspecified)	0.35	2.1
CC1CCN(C(=O)C2CCCN(c3ncnc4c3nc3n4CCCCC3)C2)CC1 (stereo unspecified)	0.45	-0.4
COc1cc(Br)c(Br)c(Br)c1N	1.2	0.21
COC(=O)c1c[nH]n2c(=O)cc(C)nc12	0.3	0.16
COc1cccc(C(=O)NC(=S)Nc2ccc3c4c(cccc24)CC3)c1	0.83	-0.97
Cc1nc2ccccn2c1-c1ccnc(=S)[nH]1	1.3	1
Cc1ccccc1C(=O)NC(=S)Nc1ccc(N2CCOCC2)cc1	0.83	-0.72
Cc1ccc(Oc2ccccc2)c(NC=O)c1	1.9	-0.9
Cc1nnsc1C(=O)NCc1c(F)cccc1Cl	0.17	0.23
CC(C)CCN1CCN=C1Nc1ccccc1	1.7	-0.51
CCS(=O)(=O)Nc1cccc(C2=NN(S(=O)(=O)CC)C(c3cccs3)C2)c1 (stereo unspecified)	1.4	-0.49
CC(=O)Nc1ccc(N(C(=O)c2cnccn2)C(C(=O)NC2CCCCC2)c2ccc(O)cc2)cc1 (stereo unspecified)	1.2	1
COc1ccc(NC(=S)N2CCC(NC(=O)c3ccc(F)cc3)CC2)cc1	0.64	-0.79
CCCCNC(=O)NNC(=O)C1CC1(c1ccccc1)c1ccccc1 (stereo unspecified)	0.85	-0.67
O=C(Oc1ccccc1)c1cccnc1Oc1ccccc1	0.07	-1
Cc1cccc(Nc2c(-c3ccc(O)cc3)nc3ncccn23)c1	2.2	1.6
O=C(c1cnn(C(=O)c2ccccc2)c1)c1ccccc1O	0.59	1.1
COc1ccc(CCNS(=O)(=O)c2ccc3c(c2)NC(=O)CO3)cc1OC	1.3	-0.71
Nc1nc2nn(-c3ccccc3)nc2c(=O)[nH]1	1.1	1.8
Cc1c(Cl)cccc1NC(=S)N1CCc2ccccc2C1	0.25	-1.5
CC(=O)OCC(=O)Nc1c(C)cc(C)cc1C	0.64	-0.34
CNc1nc2c(-c3ccc(Cl)cc3)nnn2c2ccccc12	0.14	-1.6
O=C(O)CCCNC(=O)Nc1ccccc1	0.71	1.1
Cc1nc2cc(C(=O)O)ccc2n1C1CCCCC1	0.25	-0.22
CCC(c1nnnn1Cc1ccccc1)N1CCN(C(=O)c2ccco2)CC1 (stereo unspecified)	0.32	2
COc1cc(C2c3c(oc4c(C)cc(C)cc4c3=O)C(=O)N2Cc2cccnc2)ccc1O (stereo unspecified)	1.4	-3
O=C(CCC1CCCCC1)Nc1nnc(C(F)(F)F)s1	1.2	-1.6
CCCN(CCC)C(C)C(=O)NCC1(c2ccccc2)CCCC1 (stereo unspecified)	0.56	3.9
O=C1CC(N2CCSCC2)C(=O)N1c1cccc(Br)c1 (stereo unspecified)	0.78	0.15
CCOC(=O)C1CCCN(c2cc(NCCCO)c([N+](=O)[O-])c3nonc23)C1 (stereo unspecified)	1.1	-0.6
CC(Sc1nncn1-c1ccccc1)C(=O)Nc1cccc([N+](=O)[O-])c1 (stereo unspecified)	0.58	-1.5
CCNc1nc(Cl)nc(NC2CCCCC2)n1	0.89	1
COc1ccc2c(c1)nc(SCC(O)c1ccccc1)n2C (stereo unspecified)	1	-0.65
O=C(N/N=C/c1cccs1)c1cncc(Br)c1	1.5	0
CCn1c(SCC(=O)Nc2cc(C)on2)nnc1-c1cccnc1	1.3	-0.26
O=C(Nc1ccccc1)Nc1ccc2ncoc2c1	1.5	0.23
Clc1ccc(OCCCN2CCCCC2)c(Br)c1	0.6	2.9

Gathered by group: the compounds so far containing a Cl atom.
SMILES	KCNQ2 pot	KCNQ2 pot baseline
O=C(Cc1ccc(Cl)cc1)NCCS(=O)(=O)N1CCN(c2ccccc2)CC1	1.4	-1.6
S=C(NCCC1=CCCCC1)Nc1ccc(Cl)cc1	1.2	-0.77
O=C(NN1CCOCC1)c1ccc(Cl)s1	1.8	-0.81
FC(F)(F)c1cccc(-c2nc3nc(Cl)c(Cl)nc3[nH]2)c1	1.5	1.5
COCCN1C(=O)N(c2cccc(OC)c2)C(=O)C1CC(=O)Nc1ccc(Cl)cc1 (stereo unspecified)	0.33	-0.3
COc1ccc(CCNC(=O)CS(=O)(=O)Cc2nc(-c3ccccc3Cl)oc2C)cc1OC	0.2	-0.03
CN(C)/C=N/c1nc2nccc(-c3ccc(Cl)cc3)n2n1	1.2	-0.2
COc1ccc(Cl)cc1C(=O)CSc1nnnn1C	2.5	-0.17
COc1ccc(N2C(=O)CC(N3CCC(O)(c4ccc(Cl)cc4)CC3)C2=O)cc1 (stereo unspecified)	0.74	0.6
CCCc1cc(=O)oc2c(CN(CC)CC)c(O)c(Cl)cc12	1.9	-0.04
Cc1nnsc1C(=O)NCc1c(F)cccc1Cl	0.17	0.23
Cc1c(Cl)cccc1NC(=S)N1CCc2ccccc2C1	0.25	-1.5
CNc1nc2c(-c3ccc(Cl)cc3)nnn2c2ccccc12	0.14	-1.6
CCNc1nc(Cl)nc(NC2CCCCC2)n1	0.89	1
Clc1ccc(OCCCN2CCCCC2)c(Br)c1	0.6	2.9

Source: PubChem BioAssay (Johns Hopkins Ion Channel Center)
